# Vaccinia inh: Vaccinia orthopox stage-specific inhibition; hit rate 0.01% among 89,000; Vaccinia-infected cells, mCherry/Venus stage reporter fluorescence; active compounds read low; some inactives read as strong as hits; activity change (mCherry), % (no concentration beside the values);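 active = mCherry past -33% and 40 or more points under the early reporter, replicates agreeing; inconclusive = past -33% without that gap or agreement; tested in A549 cells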;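 also: scaled between vehicle wells and reference inhibitor wells; 23 nL library stock went into each well; one replicate is shown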
# Vaccinia inh Venus: second read-out of Vaccinia inh, no call of its own (marks repeat the call); activity change (Venus), %; measured here: Venus reporter, other viral stage;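 negative = less Venus signal; first of two replicates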
# Starred values were filed as active, the others as inactive; u = inconclusive; x = not tested or not shown. Only part of the results is shown. The share of hits here may be higher or lower than overall.
# The line under a structure holds: Vaccinia inh	Vaccinia inh Venus
> C[C@@H]1CCCCO[C@@H](CN(C)C(=O)Nc2cccc3ccccc23)[C@@H](C)CN([C@H](C)CO)C(=O)c2cc(NC(=O)Nc3ccc(C(F)(F)F)cc3)ccc2O1
    9	7
> Cc1ccc(CN2CC(=O)N3[C@H](C2)[C@@H](c2ccc(Br)cc2)[C@@H]3CO)cc1
    35	13
> COc1ccc(-c2cnc3c(c2)C(=O)N([C@H](C)CO)C[C@@H](C)[C@H](CN(C)C(=O)Cc2ccncc2)O3)cc1
    6	6
> CN(C)C(=O)c1cccc(-c2ccc3c(c2)[C@@H]2[C@@H](CCN2C(=O)Cc2ccccc2)[C@@H](CO)N3)c1
    -6	5
> OC[C@H]1[C@@H](c2ccc(-c3cccnc3)cc2)[C@@H]2CN(CC3CC3)CCCCN12
    4	6
> CN(C)C(=O)C[C@@H]1C[C@@H]2c3cc(NC(=O)Nc4ccc(F)cc4)ccc3O[C@@H]2[C@H](CO)O1
    5	11
> CN(C)CC#Cc1ccc([C@H]2[C@H]3CN(C(=O)Nc4cc(F)ccc4F)CCCCN3[C@H]2CO)cc1
    1	1
> C[C@H](CO)N1C[C@H](C)[C@@H](CN(C)Cc2ccncc2)Oc2ccc(NC(=O)NC3CCCCC3)cc2C1=O
    7	3
> COc1ccccc1S(=O)(=O)N[C@@H]1CC[C@@H](CC(=O)NCc2cccc(F)c2)O[C@@H]1CO
    3	-5
> O=C(C1CCCC1)N1CC2(C1)[C@@H](c1ccccc1)[C@@H](CO)N2Cc1cncnc1
    6	8
> CCCc1cn(CC[C@@H]2CC[C@H](NC(=O)C3CCOCC3)[C@H](CO)O2)nn1
    3	7
> COc1ccc(S(=O)(=O)N(C)C[C@@H]2Oc3ccc(NC(=O)Nc4ccccc4)cc3C(=O)N([C@H](C)CO)C[C@H]2C)cc1
    2	3
> CCCC#Cc1ccc2c(c1)O[C@@H](CN(C)C(=O)Nc1ccccc1F)[C@@H](C)CN([C@@H](C)CO)S2(=O)=O
    u	x
> COc1ccc(S(=O)(=O)Nc2ccc3c(c2)CC(=O)N([C@@H](C)CO)C[C@@H](C)[C@@H](CN(C)S(=O)(=O)c2ccc(OC)cc2)O3)cc1
    -7	-10
> C[C@H](CO)N1C[C@H](C)[C@@H](CN(C)Cc2ccc(Cl)c(Cl)c2)OCCCC[C@H](C)Oc2ccc(NC(=O)Nc3cccc4ccccc34)cc2C1=O
    3	3
> CC(=O)Nc1ccc2c(c1)C(=O)N(C)[C@H]1CC[C@H](CC(=O)NCc3ccccc3)O[C@H]1CO2
    6	4
> C[C@@H]1CN([C@H](C)CO)C(=O)c2cccc(NS(=O)(=O)c3cccs3)c2O[C@H]1CN(C)Cc1ccc(Oc2ccccc2)cc1
    -13	-8
> CCC(=O)N[C@H]1CC[C@H](CC(=O)NCCN2CCCCC2)O[C@H]1CO
    -4	2
> CNC[C@H]1Oc2ccc(NS(C)(=O)=O)cc2C(=O)N([C@H](C)CO)C[C@@H]1C
    18	15
> CCCC#Cc1cnc2c(c1)C(=O)N([C@@H](C)CO)C[C@@H](C)[C@@H](CN(C)C(=O)C1CC1)O2
    -5	-5

# Part of the list above in a different format:
structure,Vaccinia inh,Vaccinia inh Venus
CN(C)C(=O)c1cccc(-c2ccc3c(c2)[C@@H]2[C@@H](CCN2C(=O)Cc2ccccc2)[C@@H](CO)N3)c1,-6,5
CCCC#Cc1ccc2c(c1)O[C@@H](CN(C)C(=O)Nc1ccccc1F)[C@@H](C)CN([C@@H](C)CO)S2(=O)=O,u,x
C[C@H](CO)N1C[C@H](C)[C@@H](CN(C)Cc2ccc(Cl)c(Cl)c2)OCCCC[C@H](C)Oc2ccc(NC(=O)Nc3cccc4ccccc34)cc2C1=O,3,3
O=C(C1CCCC1)N1CC2(C1)[C@@H](c1ccccc1)[C@@H](CO)N2Cc1cncnc1,6,8
COc1ccc(-c2cnc3c(c2)C(=O)N([C@H](C)CO)C[C@@H](C)[C@H](CN(C)C(=O)Cc2ccncc2)O3)cc1,6,6

# (cont.)
# The line under a structure holds: Vaccinia inh	Vaccinia inh Venus
> COc1ccc(CN2[C@@H](CO)[C@@H]3c4ccccc4NC[C@@H]32)cc1
    -24	-15
> C[C@H](NC(=O)C[C@H]1CC[C@@H](NC(=O)CN2CCOCC2)[C@@H](CO)O1)c1ccccc1
    8	5
> C[C@H]1CN([C@@H](C)CO)C(=O)c2cc(-c3ccccc3)cnc2O[C@@H]1CN(C)C(=O)Cc1ccccc1
    -11	-13
> CCCNC(=O)N(C)C[C@@H]1Oc2ncc(-c3ccccc3)cc2C(=O)N([C@H](C)CO)C[C@H]1C
    19	8
> C[C@@H]1CN([C@H](C)CO)C(=O)Cc2cc(NC(=O)C3CC3)ccc2O[C@@H]1CN(C)S(=O)(=O)c1ccc(Cl)cc1
    -11	-7
> O=C(NCC[C@@H]1CC[C@H](NC(=O)C2CC2)[C@H](CO)O1)Nc1ccc(Cl)cc1
    9	7
> CO[C@H]1CC[C@H]2CCN(C)C(=O)[C@H](C)[C@H](OC)CN(C)C(=O)c3cc(C#N)ccc3OC[C@@H]1O2
    11	10
> C[C@@H]1CN([C@@H](C)CO)S(=O)(=O)c2ccc(C#C[C@@H](C)O)cc2O[C@H]1CN(C)C(=O)C1CCCCC1
    6	7
> C[C@@H]1CCCCO[C@H](CN(C)CC2CC2)[C@H](C)CN([C@@H](C)CO)C(=O)c2cc(NC(=O)c3ccccc3)ccc2O1
    -14	-14
> C[C@@H]1CCCCO[C@@H](CN(C)CC2CC2)[C@H](C)CN([C@H](C)CO)C(=O)c2cc(NC(=O)CCCN(C)C)ccc2O1
    10	2
> C[C@@H]1CN([C@@H](C)CO)C(=O)c2cc(NC(=O)Cc3cn(C)c4ccccc34)ccc2O[C@@H]1CN(C)Cc1ccncc1
    1	0
> C/C=C/c1ccc2c(c1)O[C@H](CN(C)C(=O)c1ccccc1F)[C@@H](C)CN([C@@H](C)CO)S2(=O)=O
    -16	-7
> C[C@H]1CN([C@@H](C)CO)C(=O)c2cc(C#Cc3ccccc3F)cnc2O[C@@H]1CN(C)C(=O)Cc1ccncc1
    -24	-21
> C[C@@H]1CN([C@H](C)CO)C(=O)c2cc(NC(=O)NC3CCCCC3)ccc2O[C@@H](C)CCCCO[C@H]1CN(C)C(=O)C1CCCCC1
    -6	-3
> C[C@H](CO)N1C[C@H](C)[C@@H](CN(C)C(=O)C2CCOCC2)Oc2ncc(C#CC3(O)CCCC3)cc2C1=O
    19	6
> O=C(NCc1ccc(F)cc1)[C@@H]1[C@@H](CO)[C@@H]2Cn3c(cccc3=O)[C@H]1N2C(=O)c1cnccn1
    17	14
> CN1c2ccc(-c3ccccc3F)cc2[C@@H]2[C@@H](CCN2S(=O)(=O)c2ccc(F)cc2)[C@H]1CO
    u	x
> COc1ccccc1-c1cccc(-c2nc(C(=O)N3CCCCC3)cc3c2[C@H](CCO)N([S@@](=O)C(C)(C)C)C3)c1
    -25	0
> O=C1CNC[C@H]2[C@H](c3ccc(C#CC4CCCCC4)cc3)[C@@H](CO)N12
    6	7
> CNC[C@H]1OCCCC[C@@H](C)Oc2ccc(NC(=O)Nc3c(C)noc3C)cc2C(=O)N([C@H](C)CO)C[C@H]1C
    21	17
> C[C@@H]1CN([C@@H](C)CO)C(=O)c2cc(NC(=O)Nc3ccc(C(F)(F)F)cc3)ccc2O[C@@H]1CN(C)Cc1ccc(C(F)(F)F)cc1
    u	x
> C[C@@H]1CN([C@@H](C)CO)C(=O)CCCn2nncc2CO[C@@H]1CN(C)Cc1ccc2c(c1)OCCN2C
    7	5
> CNC[C@@H]1OCCCC[C@@H](C)Oc2ccc(NS(=O)(=O)c3cccs3)cc2C(=O)N([C@H](C)CO)C[C@H]1C
    6	6
> C[C@H](CO)N1C[C@H](C)[C@@H](CN(C)C(=O)Nc2ccc(C(F)(F)F)cc2)Oc2c(NC(=O)c3ccc(-c4nccs4)cc3)cccc2C1=O
    -16	-11
> COc1ccccc1NC(=O)N[C@H]1CC[C@@H](CC(=O)N[C@@H](C)c2ccccc2)O[C@@H]1CO
    -8	-1
> O=C(CC1CC1)N1CC2(C1)[C@@H](c1ccccc1)[C@H](CO)N2C(=O)c1cccnc1
    2	4
> CNC(=O)C[C@H]1CC[C@@H]2[C@H](COC[C@@H](O)CN2Cc2ccncc2)O1
    3	1
> O=S(=O)(c1ccc2ccccc2c1)N1CCN(Cc2ccc(OCCO)cc2)CC1
    u	x
> C[C@H](CO)N1C[C@H](C)[C@@H](CN(C)C(=O)Nc2ccccc2)Oc2ccc(NS(=O)(=O)c3cn(C)cn3)cc2C1=O
    14	1
> Cc1noc(C)c1S(=O)(=O)N(C)C[C@@H]1OCCCC[C@H](C)Oc2ccc(NC(=O)NC(C)C)cc2C(=O)N([C@@H](C)CO)C[C@H]1C
    9	10
> CO[C@@H]1CN(C)C(=O)c2ccc(NC(=O)C3CCCC3)cc2OC[C@H](C)N(C)C[C@@H]1C
    -7	-10
> COc1cccc(NC(=O)N[C@H]2CC[C@@H](CC(=O)NCc3ccncn3)O[C@H]2CO)c1
    3	0
> C[C@H](CO)N1C[C@H](C)[C@H](CN(C)Cc2ccc(Cl)c(Cl)c2)Oc2ccc(NC(=O)CCC(F)(F)F)cc2CC1=O
    -19	-9
> CO[C@H]1CN(C)C(=O)c2cc(NS(=O)(=O)c3ccccc3)ccc2OC[C@H](C)N(Cc2cccnc2)C[C@@H]1C
    -5	1
> COCC#Cc1cnc2c(c1)C(=O)N([C@H](C)CO)C[C@@H](C)[C@@H](CN(C)S(=O)(=O)c1ccccc1)O2
    18	4
> CCC(=O)N(C)C[C@@H]1Oc2cc(C#CC3CCCCC3)ccc2S(=O)(=O)N([C@@H](C)CO)C[C@@H]1C
    u	x
> CC(C)CC#Cc1cnc2c(c1)C(=O)N([C@@H](C)CO)C[C@@H](C)[C@@H](CN(C)C(=O)c1cccc(F)c1)O2
    u	x
> CC(C)NC(=O)Nc1ccc2c(c1)C(=O)N([C@H](C)CO)C[C@H](C)[C@H](CN(C)C(=O)Nc1ccc3c(c1)OCO3)OCCCC[C@H](C)O2
    25	14
> CCCNC(=O)[C@H]1[C@H](CO)[C@H]2Cn3c(cccc3=O)[C@H]2N1C(=O)C1CCC1
    13	8
> O=C(NCc1ccc(F)cc1)[C@@H]1[C@@H](CO)[C@@H]2Cn3c(ccc(-c4cccnc4)c3=O)[C@H]1N2
    18	6
> C[C@@H]1CN([C@@H](C)CO)C(=O)c2cccc(NC(=O)Nc3ccccc3)c2O[C@H]1CN(C)C(=O)Nc1ccccc1
    12	13
> CCC(=O)N(C)C[C@@H]1Oc2cc(C#CCC3CCCC3)ccc2S(=O)(=O)N([C@H](C)CO)C[C@H]1C
    u	x
> CCNC(=O)c1cc2c(c(-c3cccc(-c4cncnc4)c3)n1)[C@H](CCO)N(C(C)=O)C2
    1	2
> CC(C)NC(=O)N1[C@H](CO)[C@@H]2c3ccccc3N(C(=O)Nc3ccccc3)C[C@@H]21
    -3	9
> CNC(=O)C[C@@H]1CC[C@H]2[C@@H](COC[C@H](O)CN2Cc2ccccc2F)O1
    3	-7
> CO[C@H]1CN(C)C(=O)c2ccc(NC(=O)C3CC3)cc2OC[C@@H](C)NC[C@H]1C
    14	9
> O=C(N[C@H]1C=C[C@@H](CC(=O)N2CCN(c3ccccc3)CC2)O[C@@H]1CO)c1ccccc1
    3	-2
> CCNC(=O)C[C@H]1CC[C@H]2[C@@H](COC[C@H](O)CN2C(=O)Nc2ccc3c(c2)OCO3)O1
    39	15
> CO[C@H]1CN(C)C(=O)c2ccc(NS(=O)(=O)c3cccc(F)c3)cc2OC[C@H](C)NC[C@H]1C
    5	7
> COc1ccc(S(=O)(=O)Nc2ccc3c(c2)C(=O)N([C@H](C)CO)C[C@@H](C)[C@H](CN(C)Cc2ccc(C(F)(F)F)cc2)OCCCC[C@@H](C)O3)cc1
    u	x
> COc1cccc(NC(=O)N2C[C@@H](O)COC[C@H]3O[C@@H](CC(=O)NC4CCC4)CC[C@@H]32)c1
    3	5
> COc1cccc(C#Cc2ccc([C@@H]3[C@H]4CN(S(=O)(=O)c5ccccc5C)CC(=O)N4[C@H]3CO)cc2)c1
    -2	-14
> CN(C)C(=O)C[C@H]1C[C@H]2c3cc(NC(=O)C4CCC4)ccc3O[C@H]2[C@H](CO)O1
    11	5
> CO[C@@H]1CC[C@@H]2CCN(C)C(=O)[C@H](C)CN(C)C(=O)c3cccc(C#N)c3OC[C@H]1O2
    9	-1
> CC(=O)Nc1ccc2c(c1)C(=O)N(C)[C@@H]1CC[C@@H](CC(=O)NCC3CC3)O[C@@H]1CO2
    12	12
> C[C@H]1CN([C@@H](C)CO)C(=O)c2cc(-c3cccc(C(=O)N(C)C)c3)cnc2O[C@H]1CN(C)C(=O)Cc1ccccn1
    15	9
> Cc1ccc(S(=O)(=O)N(C)C[C@H]2Oc3c(NC(=O)c4ccncc4)cccc3C(=O)N([C@H](C)CO)C[C@@H]2C)cc1
    -4	-1
> COc1ccc(C#Cc2ccc([C@@H]3[C@H](CO)N4CCCCN(Cc5ccncc5)C[C@@H]34)cc2)cc1
    u	x
> COc1cccc(NC(=O)N(C)C[C@@H]2Oc3cc(C#CC4(O)CCCC4)ccc3S(=O)(=O)N([C@@H](C)CO)C[C@@H]2C)c1
    -15	-12
> C[C@H]1CN([C@@H](C)CO)S(=O)(=O)c2ccc(/C=C/c3ccccc3)cc2O[C@@H]1CN(C)C(=O)Nc1cccc(F)c1
    u	x
> Cc1noc(C)c1NC(=O)N(C)C[C@H]1Oc2ccc(NS(C)(=O)=O)cc2C(=O)N([C@@H](C)CO)C[C@@H]1C
    12	6

# Single records, as listed above. Order of values: Vaccinia inh | Vaccinia inh Venus
# Results for `C[C@H](CO)N1C[C@H](C)[C@H](CN(C)Cc2ccc(Cl)c(Cl)c2)Oc2ccc(NC(=O)CCC(F)(F)F)cc2CC1=O` = -19 | -9
# Results for `CC(C)NC(=O)N1[C@H](CO)[C@@H]2c3ccccc3N(C(=O)Nc3ccccc3)C[C@@H]21` = -3 | 9

# High-throughput results as filed in PubChem.
